Compound activity from PubChem.
CHT inh – inhibits the human high affinity choline transporter; Q9GZV3; CHT-expressing cells, membrane potential dye, choline response; stronger effect = lower value; B-score at 10 µM; actives 0.86% (n = 310,000); AID 488975;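 active = B-score over 3 SD under the library average, and starting fluorescence ratio not unusually high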;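 also: choline stimulus applied at its EC90 after an EC20 pre-addition; B-score computed on integrated fluorescence ratio after choline addition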
Target sequence (Q9GZV3 whole entry, looked up): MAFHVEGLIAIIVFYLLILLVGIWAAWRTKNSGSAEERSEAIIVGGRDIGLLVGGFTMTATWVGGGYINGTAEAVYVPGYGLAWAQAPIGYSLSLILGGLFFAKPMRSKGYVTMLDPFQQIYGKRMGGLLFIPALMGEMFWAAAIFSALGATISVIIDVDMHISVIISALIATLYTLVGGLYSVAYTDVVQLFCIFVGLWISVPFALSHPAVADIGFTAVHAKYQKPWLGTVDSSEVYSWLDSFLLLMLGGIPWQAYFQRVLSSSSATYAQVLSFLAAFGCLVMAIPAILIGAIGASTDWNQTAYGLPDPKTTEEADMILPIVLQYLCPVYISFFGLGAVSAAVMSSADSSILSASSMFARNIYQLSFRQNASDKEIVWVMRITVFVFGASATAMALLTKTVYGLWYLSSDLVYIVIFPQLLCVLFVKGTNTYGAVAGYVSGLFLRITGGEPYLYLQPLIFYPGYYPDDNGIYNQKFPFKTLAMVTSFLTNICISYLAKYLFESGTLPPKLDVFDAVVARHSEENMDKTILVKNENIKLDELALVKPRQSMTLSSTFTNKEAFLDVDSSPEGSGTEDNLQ
Kir21 block – Kir2.1 (mouse) channel inhibition; P35561; HEK293-Kir2.1, FluxOR thallium flux fluorescence; stronger effect = lower value; B-score at 10 µM; actives 0.85% (n = 310,000);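 active = fluorescence ratio B-score at or below minus 3 SD of library scores, with starting-brightness B-score within 2 SD, cut at about -4.2 in these data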;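 also: channel flux triggered by added potassium and thallium sulfate stimulus; B-score of peak minus minimum fluorescence over baseline after thallium stimulus; more negative B-score means stronger Kir2.1 block with less thallium influx; some compounds called inactive have numbers as strong as hits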
Target sequence (P35561 whole entry, looked up): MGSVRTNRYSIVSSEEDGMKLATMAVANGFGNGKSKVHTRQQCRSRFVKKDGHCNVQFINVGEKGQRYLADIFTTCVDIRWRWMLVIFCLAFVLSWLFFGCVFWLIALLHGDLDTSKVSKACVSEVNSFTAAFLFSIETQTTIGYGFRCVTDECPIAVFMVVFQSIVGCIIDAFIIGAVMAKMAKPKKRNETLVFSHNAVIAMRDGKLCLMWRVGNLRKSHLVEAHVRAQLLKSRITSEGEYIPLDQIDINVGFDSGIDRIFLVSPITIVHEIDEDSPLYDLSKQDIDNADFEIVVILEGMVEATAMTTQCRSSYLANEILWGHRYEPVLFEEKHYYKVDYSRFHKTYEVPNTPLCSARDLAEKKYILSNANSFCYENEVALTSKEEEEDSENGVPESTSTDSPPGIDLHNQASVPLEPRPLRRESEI
* marks the source's active call; other numbers are inactive results; i = inactive; · = not tested or not shown.

Order of values: CHT inh	Kir21 block
> NC(=O)[C@@H]1CCCNc2c(F)cc([N+](=O)[O-])cc2C(=O)N[C@@H](CO)C(=O)NCC(=O)N1
 : i	1.19
> O=C(NC1CCCc2c1cnn2-c1ccc(F)cc1F)c1cnccn1 (centres undefined)
 : i	0.53
> Cc1ccc2nc3c(cc(C(=O)NCc4ccco4)c(=N)n3C3CCCC3)c(=O)n2c1
 : i	-2.06
> COc1ccc(S(=O)(=O)N2CCCC(C(=O)NC3CC3)C2)cc1OC (centres undefined)
 : i	0.8
> COc1ccc(Cl)cc1S(=O)(=O)N1CCCC1=O
 : i	-2.24
> O=C(CCNC(=O)c1ccccc1)OCN1C(=O)c2ccccc2C1=O
 : i	-1.02
> O=C(COC(=O)CCC(=O)c1ccc(Cl)cc1)NCCc1ccccc1
 : i	0.55
> COc1ccc(C(=O)N2CCC(n3nccc3NC(=O)C3CC3)CC2)c(OC)c1OC
 : i	0.04
> Cc1ccccc1/C=N/Nc1ncnc2nc[nH]c12
 : i	1.89
> CCC(C)(C)NC(=O)CN(Cc1cccs1)C(=O)CNS(=O)(=O)c1ccc(F)cc1
 : i	-1.53
> C=CCn1c(SCC(=O)Nc2ncc(Cc3cc(C(F)(F)F)ccc3Cl)s2)nnc1-c1ccncc1
 : i	0.81
> CC(C)NC(=S)NCc1cccnc1
 : i	0.04
> CN(C)C(=O)c1cn(-c2ccccc2)nc1-c1cc2ccccc2o1
 : i	0.03
> COc1cc(OC)cc(C(=O)NC(=S)NCCc2ccccc2)c1
 : i	0.72
> O=C(Nc1ccc(-c2nnc(-c3ccccc3)o2)cc1)C1CCCO1 (centres undefined)
 : i	0.29
> CN1CCN(S(=O)(=O)CC2(C)C3CCC2(C)C(=O)C3Br)CC1 (centres undefined)
 : i	0.05
> CCCCNC(=O)O[C@@H]1C[C@@H]2CCN3C(=O)CCC[C@H]([C@H]1CC)[C@H]23
 : i	-0.05
> CN(C)CCNC(=O)c1ccccc1-c1cc2ccccc2c(=O)o1
 : i	-0.02
> CCC(C)NC(=O)CC1Oc2ccc(C)cc2NC1=O (centres undefined)
 : i	0.76
> O=C(Nc1ccc(-n2cccc2)cc1)C1CC1
 : i	0.13

(more compounds)
Order of values: CHT inh	Kir21 block
> CCOc1ccc(NC(=O)CSC2=C(C#N)C(c3ccc4c(c3)OCO4)CC(=O)N2)cc1 (centres undefined)
 : i	1.6
> COCC(=O)NC1CCN(C(=O)Nc2ccc(Br)cc2)CC1
 : i	-0.33
> Cc1ccsc1S(=O)(=O)N1CCCC(CCC(=O)NCc2ccccc2F)C1 (centres undefined)
 : i	-1.71
> O=C1CCCCC1C(=O)c1cn(-c2ccc(Cl)c(Cl)c2)nn1 (centres undefined)
 : i	-0.23
> COc1ccc(NC(=O)Oc2ccccc2)cc1Cl
 : i	1.22
> O=S(=O)(Nc1ccc2c(c1)OCCO2)c1cccc2cccnc12
 : i	-1.77
> COc1ccc(Nc2nc(N)c([N+](=O)[O-])c(NCCO)n2)cc1
 : i	0.54
> O=C(NCc1ccco1)c1ccc2nccnc2c1
 : i	2.13
> Cc1nn(CCO)c2ncc(C(=O)c3cc(F)ccc3O)cc12
 : i	0.01
> S=C(NCCN1CCOCC1)Nc1ccc(Br)cc1
 : i	-0.63
> O=C(Nc1nnc(SCc2ccc(F)cc2)s1)c1ccccn1
 : ·	1.23
> O=C(N/N=C/c1c(F)cccc1Cl)C(=O)N1CCCCCC1
 : i	-0.68
> CCN(CCCNC(=O)C1CCN(S(=O)(=O)N2CCC3(CC2)OCCO3)CC1)c1ccccc1
 : i	0.14
> CC(=O)N1CCc2cc(S(=O)(=O)CCC(=O)Nc3ccc4c(c3)OCCO4)ccc21
 : i	-0.39
> CC(C)CNC(=O)COc1ccccc1[N+](=O)[O-]
 : i	0.15
> Cc1noc(C)c1C(=O)N1CCN(c2ncccn2)CC1
 : i	0.01
> Cn1c(=O)c2c(nc(CN3CCC(C(N)=O)CC3)n2Cc2ccccc2F)n(C)c1=O
 : i	-0.14
> COC(=O)c1c(NC(C)=O)sc(C)c1C
 : i	2.28
> Cc1cc(C)c(C(=O)COC(=O)c2cccnc2Cl)c(C)c1
 : i	0.66
> O=C(CNC(=O)c1sc2ccccc2c1Cl)NCc1cccc(C(F)(F)F)c1
 : i	-0.24

(more compounds)
Order of values: CHT inh	Kir21 block
> Cn1cnc2c(=O)[nH]cc([N+](=O)[O-])c21
 : i	-0.24
> COc1ccc(Cl)cc1S(=O)(=O)NC(C)C(=O)NCc1ccncc1 (centres undefined)
 : i	-0.1
> Cc1cccc(NCCC(=O)c2ccc([N+](=O)[O-])cc2)c1C
 : i	0.03
> NC(=O)C1CCN(C2CC(=O)N(Cc3cccs3)C2=O)CC1 (centres undefined)
 : i	1.45
> CCCCOc1ncnc2c1[nH]c1ccc(OCC)cc12
 : i	1.41
> CCCCSC(=S)N(C)C1CCS(=O)(=O)C1 (centres undefined)
 : i	0.25
> Cc1ccc(S(=O)(=O)NCc2ccccn2)c(C)c1C
 : i	-0.13
> Cc1cc(C)nc(NS(=O)(=O)c2ccc(NC(=O)COc3ccccc3)cc2)n1
 : i	2.32
> COc1ccccc1OCC(O)CN1CCN(C(=O)c2ccccc2)CC1 (centres undefined)
 : i	-0.67
> Cc1ccc(-n2c(C)cc(C(=O)COc3cccnc3[N+](=O)[O-])c2C)cc1
 : i	0.11
> CC1CC(C)CN(C(=O)c2cc3cc(Br)cc(Br)c3o2)C1 (centres undefined)
 : i	-1.26
> Cn1ncc2cc(NC(=S)NC(=O)c3ccccc3)ccc21
 : i	2.47
> COCCNc1oc(-c2ccccc2Cl)nc1C#N
 : i	2.19
> CC(=O)Nc1cc2c(cc1C(C)=O)OCCO2
 : i	-0.01
> COc1cc(C(=O)NCCNC(=O)c2ccc(C)nc2)cc(OC)c1OC
 : i	-1.88
> CC(=O)NCCc1cc2ccc(C)cc2[nH]c1=O
 : i	3.02
> COc1cc(OC)c(C(=O)NC2CCCc3ccccc32)cc1OC (centres undefined)
 : i	0.07
> O=C1COc2ccc(C(=O)COC(=O)c3ccc(Cl)cc3[N+](=O)[O-])cc2N1
 : i	0.01
> CCN1C(=O)C(=O)N(CC(=O)N2CCN(c3ccccc3)CC2)C1=O
 : i	-0.84
> COCCN(C(=S)Nc1ccccc1C)C(C)c1cccnc1 (centres undefined)
 : i	0.06

Continuation:
Order of values: CHT inh	Kir21 block
> CC1=C(C(=O)OC(C)(C)C)C(c2ccco2)C(C#N)=C(N)O1 (centres undefined)
 : i	-2.31
> Cc1ccc(-c2cn3c(=O)cc(C)[nH]c3n2)cc1
 : i	0.04
> CCCNc1ccc(S(=O)(=O)N(C(C)C)C(C)C)cn1
 : i	0.54
> Cc1ccc(-c2nc(CN3CCCCC3)cc(CN3CCCCC3)c2O)cc1
 : i	0.35
> O=C(/C=C/c1cccc(Br)c1)c1ccc2c(c1)OCO2
 : i	1.94
> COCCC(=O)N1CCC(Oc2ccc(C(=O)N3CCCCCCC3)cc2)CC1
 : i	-1.41
> CC(Cc1c[nH]c2ccccc12)C(=O)NCc1ccco1 (centres undefined)
 : i	-0.99
> CCOc1ccc(NC(=O)c2ccc(S(=O)(=O)N3CCOCC3)cc2)cc1
 : i	0.67
> COC(=O)c1ccc(-n2c(C)cc(C(=O)CCl)c2C)cc1
 : i	0.03
> CC(C)C(=O)N1CCN(c2ccccc2NC(=S)NC(=O)Cc2ccccc2)CC1
 : i	-0.01
> COc1ccc(/C=N/NC(=O)c2cc3cc(OC)c(OC)cc3[nH]2)cc1
 : i	-1.18
> CC(C)c1ccc(NC(=S)N2CCN(C)CC2)cc1
 : i	0.38
> OC(Cn1cncn1)c1ccc(Cl)cc1 (centres undefined)
 : i	-0.87
> CN(C)c1nc2c(c(=O)n(C)c(=O)n2C)n1CC(=O)c1cccs1
 : i	0.19
> Cc1nc(NC(C)C(=O)O)c2nc(C)oc2n1 (centres undefined)
 : i	-0.02
> CC(C)=CCN1CCN(Cc2cnc(N3CCCC3)s2)CC1CCO (centres undefined)
 : i	-1.79
> Fc1ccc(COc2cccc3cccnc23)cc1
 : i	-2.48
> CC(C)C(=O)Nc1cc2c(cc1C(=O)c1ccccc1)OCCO2
 : i	-0.63
> Cc1onc(-c2ccccc2Cl)c1C(=O)Nc1c(C)n(C)n(-c2ccccc2)c1=O
 : i	-0.3
> O=C(COc1ccc(F)cc1F)N1CCCCCCC1
 : i	0.59

Other results follow.
Order of values: CHT inh	Kir21 block
> CC1(C)N=C(N)N=C(N)N1c1cccc(CN)c1
 : i	0.46
> Cc1cc(-c2nsc(=O)o2)c(S(C)(=O)=O)s1
 : i	-1.23
> COc1ccc2ccccc2c1CN1CCN(C(=O)c2ccco2)CC1
 : i	-0.05
> c1ccc(Cn2cc(CNc3ccccc3)nn2)cc1
 : i	-0.65
> Cc1ccc(CS(=O)(=O)CCC(=O)NCc2ccc3c(c2)OCO3)cc1
 : i	-0.06
> CCOC(=O)Cc1csc(NC(=O)/C=C\c2ccccc2)n1
 : i	0.17
> CC1CC(C)CN(S(=O)(=O)c2cc3c4c(c2)CCC(=O)N4CCC3)C1 (centres undefined)
 : i	-1.26
> CN(c1ccc(C(=O)Nc2cccc([N+](=O)[O-])c2)cc1)S(C)(=O)=O
 : i	3.47
> Cc1ccc(NC(=O)c2csc3c2CCCC3)cc1
 : i	-0.08
> COc1ccc(-c2csc(N(CCCN(C)C)C(=O)c3cc(OC)c(OC)c(OC)c3)n2)cc1
 : i	0.03
> CCCN1CCC(=O)N(CCO)CC1
 : i	-1.01
> COC(=O)CCC(=O)c1oc2ccc(Cl)cc2c1NC(=O)CCCN1C(=O)c2ccccc2C1=O
 : i	-0.76
> CC(C(=O)Nc1sccc1C(N)=O)N1C(=O)C2CC=CCC2C1=O (centres undefined)
 : i	0.75
> CCN(C(=O)COC(=O)/C=C/c1ccc(S(=O)(=O)N2CCc3ccccc32)cc1)C1CCS(=O)(=O)C1 (centres undefined)
 : i	0.89
> Cc1cc(C)c(C(=O)Nc2cccc(F)c2)c(Cl)n1
 : i	-0.51
> N#C/C(=C\c1c(N2CCOCC2)nc2ccccn2c1=O)S(=O)(=O)c1ccccc1
 : i	0.02
> O=C(Nc1ccc2c(c1)OCO2)N1CCN(c2ncccn2)CC1
 : i	0.87
> O=S(=O)(/C=C/c1ccccc1)N1CCOCC1
 : i	0.33
> C=C1C(=O)O[C@@H]2C[C@@H](C)[C@@H]3C=CC(=O)[C@@]3(C)[C@@H](OC(C)=O)[C@H]12
 : i	-1.93
> CCOc1ccc(N2CC(C(=O)OCC(=O)NCc3ccccc3)CC2=O)cc1 (centres undefined)
 : i	0.01

Arranged by heavy-atom count (low to high): part of the list above.
Order of values: CHT inh	Kir21 block
> Cc1ccc(NC(=O)c2csc3c2CCCC3)cc1
 : i	-0.08
> c1ccc(Cn2cc(CNc3ccccc3)nn2)cc1
 : i	-0.65
> C=C1C(=O)O[C@@H]2C[C@@H](C)[C@@H]3C=CC(=O)[C@@]3(C)[C@@H](OC(C)=O)[C@H]12
 : i	-1.93
> CC(C(=O)Nc1sccc1C(N)=O)N1C(=O)C2CC=CCC2C1=O (centres undefined)
 : i	0.75
> CCN(C(=O)COC(=O)/C=C/c1ccc(S(=O)(=O)N2CCc3ccccc32)cc1)C1CCS(=O)(=O)C1 (centres undefined)
 : i	0.89

The list goes on:
Order of values: CHT inh	Kir21 block
> COc1ccc(C2CC(=O)Oc3c(C(CCN4CCN(c5ccccc5)CC4)c4ccc(N(C)C)cc4)c(OC)cc(OC)c32)cc1 (centres undefined)
 : i	1.22
> Cc1cccc(OCC(=O)N(Cc2cccs2)C2CCS(=O)(=O)C2)c1C (centres undefined)
 : i	0
> CC(C)Cn1c(=O)c(C(=O)NCc2ccc3c(c2)OCO3)c(O)c2ccccc21
 : i	-0.01
> Cc1cc(NC(=O)CCC(=O)N(c2cccnc2)C(C(=O)NC2CCCC2)c2ccccc2F)no1 (centres undefined)
 : i	-0.22
> CC(=O)c1ccc(NC(=O)CCc2nc3sc4c(c3c(=O)[nH]2)CCCC4)cc1
 : i	0.29
> CCOc1ccc2nc(NCCNC(=O)c3cc(OC)c(OC)c(OC)c3)c(C#N)cc2c1
 : i	0.07
> CC1CN(C(=O)C2CC(=O)N(c3ccc(Cl)cc3)C2)CC(C)O1 (centres undefined)
 : i	1.19
> COc1ccc(N2CS(=O)CC2=O)cc1 (centres undefined)
 : i	-1.41
> CCc1ccc2nc(N3CCN(C(=O)C(C)(C)C)CC3)sc2c1
 : i	0.09
> CCOC(=O)CC1CCCCN1C(=O)CCCn1nnnc1CN1CCOCC1 (centres undefined)
 : i	0.13
> O=C(N/N=C/C(Cl)=C/c1ccccc1)c1cnccn1
 : i	-1.36
> CN(C)/C=N/c1sc2c(c1C#N)CCCC2
 : i	-0.6
> CC(=O)NC(CC(=O)NC12CC3CC(CC(C3)C1)C2)c1ccccc1 (centres undefined)
 : i	2.06
> CCOC(=O)CSc1nnc(CNc2nc(-c3ccccc3)cs2)n1C
 : i	-1.07
> CCn1c(C)c(C(C)=O)c(NCc2ccccc2)nc1=S
 : i	-0.65
> Cc1ccc(-n2nc3c(c2NC(=O)c2ccc4c(c2)OCO4)CS(=O)(=O)C3)cc1
 : i	-1.51
> Cc1ccc(C(O)CSc2nnc(-c3ccc4ccccc4c3)n2C)cc1 (centres undefined)
 : i	-2.43
> O=C1c2ccccc2NC(c2ccncc2)N1c1ccccn1 (centres undefined)
 : i	1.29
> CC(=O)O/N=C(\N)c1ccc(-c2csnn2)cc1
 : i	-1.75
> O=C(NC(c1ccccc1)C(Cl)Cl)c1ccccc1 (centres undefined)
 : i	-2.33
> CCN(CC)S(=O)(=O)c1ccc(C)c(NC(=O)CN2CCN(C)CC2)c1
 : i	-0.21
> COCCCNc1c2c(nc3nnnn13)CCCC2
 : i	0.39

Some of the compounds tested; most or all hits stand in other tables.
